Bioassay records: PubChem, several laboratories
E coli growth – inhibitors of Escherichia coli growth | OD600, 23 h; stronger effect = lower value | OD600 absorbance (concentration not given with the values) | 330,000 tested, 0.21% active | AID 1053175;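 active = OD600 absorbance below the run mean of sample wells minus 3.6 SD, in any replicate, cut at about 0.56 in these data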;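 note: stock transfer was 300 nL into about 60 µL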
rRNA inh HTS – selective bacterial rRNA inhibition in E. coli | E. coli WT GFP vs humanized-ribosome RFP mutants, fluorescence, 24 h; stronger effect = lower value; DMSO median 0, no signal -100 | GFP signal change (wild-type ribosome), % (test concentration not listed) | 350,000 tested, 1.6% active;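 active = significant combined selectivity score with lowered wild-type GFP, culture density cut under 30%, mutant RFP and density less affected; inactive = any of these conditions unmet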; note: one replicate is shown; some compounds called inactive have numbers as strong as hits
HNF4A DNA FP – change in binding of human HNF4 alpha to DNA; HNF4a-FITC DNA binding, fluorescence polarization, 1 h; AID 1224865; activity change, % at 10 µM; 360,000 tested, 0.3% active; in the data active = activity change above about 30%, passing the limit was not always enough;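 note: controls were the assay level and a saturating level of protein; the project sought stronger binding though the title names inhibitors; some compounds called inactive have numbers as strong as hits; positive values seem to mean higher polarization but the record does not say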
Vif A3G – HIV-1 Vif–A3G interaction blockers – biochemical, TR-FRET, GST-Vif 1-94, biotin-A3G peptide, dose response retest, primary screen (AID 1117319). TR-FRET GST-Vif / biotin-A3G peptide binding; higher % means a stronger effect; test concentration not given here; strong numbers were not always called active. one-dose inhibition, %; IC50 in µM for titrated hits. 260,000 tested, 0.57% active;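 active = above the screen mean plus three standard deviations and confirmed in dose response; inconclusive = results disagree or hit not tested in dose response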;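 note: Vif residues 1-94 fused to GST binding biotinylated APOBEC3G peptide 110-148; 0% = full assay without inhibitor and 100% = GST in place of GST-Vif; retest series ran down from 100 µM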
FGF22 binding – binders of recombinant human FGF22 by thermal shift; Q9HCT0; AID 651658; 340,000 tested, 1.5% active; calls only at 9.99 µM; SYPRO orange fluorescence; percent of sucrose octasulfate shift, DMSO zero;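 active = melting point raised past a set limit in the mean and every replicate; inconclusive = no clear call; three in four hits are not shown here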
Target sequence (Q9HCT0 whole entry, looked up): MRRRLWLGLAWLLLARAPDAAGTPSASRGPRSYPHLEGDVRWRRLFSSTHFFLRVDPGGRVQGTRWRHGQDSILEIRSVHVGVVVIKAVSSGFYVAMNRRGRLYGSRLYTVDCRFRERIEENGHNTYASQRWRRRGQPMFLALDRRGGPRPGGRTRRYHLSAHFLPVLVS
AF4-AF9 inh – inhibitors of human MLL-AF4/AF9 interaction; inhibition, % at 10 µM; 350,000 tested, 0.47% active; AlphaScreen, biotin-AF4 peptide binding to FLAG-AF9; AID 651704;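 active = every replicate reaching a set inhibition limit, whatever the replicate mean, cut at about 25% in these data; inconclusive = mean inhibition reaches that limit but some replicates miss it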;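 note: 0% = plate neutral control median and 100% = total signal loss; the record names both 10 and 1 µM as test concentration; the first replicate is given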
Target sequence (P42568 whole entry, looked up): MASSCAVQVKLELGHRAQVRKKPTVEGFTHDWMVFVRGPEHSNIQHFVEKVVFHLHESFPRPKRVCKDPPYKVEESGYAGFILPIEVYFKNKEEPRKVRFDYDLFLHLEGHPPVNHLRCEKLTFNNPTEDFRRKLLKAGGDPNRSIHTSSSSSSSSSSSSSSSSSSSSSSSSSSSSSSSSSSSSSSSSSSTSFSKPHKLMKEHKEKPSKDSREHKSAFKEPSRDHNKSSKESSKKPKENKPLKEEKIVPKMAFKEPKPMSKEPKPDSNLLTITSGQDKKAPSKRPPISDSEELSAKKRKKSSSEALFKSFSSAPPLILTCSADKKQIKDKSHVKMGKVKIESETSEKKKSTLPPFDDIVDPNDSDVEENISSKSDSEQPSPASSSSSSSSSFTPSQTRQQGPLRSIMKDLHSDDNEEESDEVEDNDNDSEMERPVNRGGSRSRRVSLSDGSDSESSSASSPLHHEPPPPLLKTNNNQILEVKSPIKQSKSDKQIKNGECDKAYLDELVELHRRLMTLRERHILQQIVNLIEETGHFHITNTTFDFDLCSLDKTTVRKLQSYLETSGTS
ALR inh – blocks human ALR sulfhydryl oxidase activity. P55789. purified ALR, DTT oxidation, H2O2 HRP-luminol luminescence. inhibition, % (concentration not given with the values). 290,000 tested, 3.8% active. AID 485317;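 active = mean and each replicate at 75% or more; inconclusive = only one of the two met; inactive = neither met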;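 note: stock transfer was 7.5 nL into about 7.5 µL; 0% = neutral wells and 100% = wells with inactivated enzyme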
Target sequence (P55789 whole entry, looked up): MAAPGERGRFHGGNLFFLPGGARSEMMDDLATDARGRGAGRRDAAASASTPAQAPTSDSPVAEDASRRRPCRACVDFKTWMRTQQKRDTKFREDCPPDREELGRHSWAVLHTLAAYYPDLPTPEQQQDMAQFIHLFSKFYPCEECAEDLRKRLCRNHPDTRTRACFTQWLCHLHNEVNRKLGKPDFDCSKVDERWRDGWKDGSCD
rRNA inh HTS OD600 – also measured in rRNA inh HTS; calls as there; OD600 change, %; measured here: OD600 growth;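 optical density of the mix in the first replicate; 0 = DMSO median and -100 = no signal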
rRNA inh HTS RFP – second read-out of rRNA inh HTS, no call of its own (marks repeat the call); RFP signal change, %; measured here: RFP humanized mutant strains;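 first replicate; 0 = DMSO median and -100 = no signal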
* hit, by the source's call; i = inactive; ? = inconclusive; · = no result given; & = joins results of further samples.

SMILES	E coli growth	rRNA inh HTS	rRNA inh HTS OD600	rRNA inh HTS RFP	HNF4A DNA FP	Vif A3G	FGF22 binding	AF4-AF9 inh	ALR inh
Cc1ccc(-c2c(C)n([O-])c3c([n+]2=O)CCCC3)o1	0.71	·	·	·	-1.4	-7%	·	·	-4
CCCCc1ccc(NC(=O)CSc2nc(=O)n(CCN3CCOCC3)c3c2CCC3)cc1	0.69	6	4	-0.8	0.4	2%	i	-0.2	99*
CN(CCc1ccccn1)C1CCCN(S(=O)(=O)c2ccccc2Cl)C1 (centres undefined)	0.64	8	2	-0.3	-6.0	-2%	i	2.6	3
CC(=O)N1CCN(S(=O)(=O)c2cccc(C(=O)Nc3ccc(F)c(F)c3)c2)CC1	0.7	1	14	-1.1	-1.6	·	i	1.1	0
O=C(c1ccc2ncsc2c1)N1CCN(c2ccccc2Cl)CC1	0.67	-6	-13	1.3	2.5	11%	i	-2.3	0
Cc1ccc(S(=O)(=O)N2CCOCC2)cc1NC(=O)COC(=O)Cc1ccccc1	0.73	2	1	-2.1	0.8	-7%	i	0.3	0
C/C=C/c1ccc([C@H]2[C@@H](CO)N(c3nc(CC)cs3)[C@H]2C#N)cc1	·	-2	-8	-8.9	·	·	i	0.8	·
C/C=C/c1ccc([C@H]2[C@H](CO)N(S(=O)(=O)CC)C23CN(C(=O)CC)C3)cc1	·	1	2	0.2	·	·	i	-0.3	·
COc1cc2c(cc1OC)CC(=O)N(C)CC2	0.65	4	4	-1.4	5.2	2%	i	3.1	7
C[C@H](O)C#Cc1cnc2c(c1)C(=O)N([C@@H](C)CO)C[C@H](C)[C@@H](CN(C)C(=O)CN1CCOCC1)O2	·	0	9	0.0	·	·	i	-2.0	·
Cc1ccccc1-n1cc(C(=O)c2cc(Cl)ccc2O)cc(C#N)c1=O	0.69	·	·	·	1.0	2%	·	·	9
Cc1ccc2c(c1)cc(CN(Cc1ccc3c(c1)OCO3)C(=O)c1cnccn1)c1nnnn12	0.74	·	·	·	0.3	21%	·	·	3
O=C(C[C@@H]1CC[C@@H]2[C@H](COC[C@H](O)CN2Cc2ccc3c(c2)OCO3)O1)Nc1ccccc1	·	-7	-1	-0.3	·	·	i	1.8	·
COc1cccc(C(=O)Nn2cnnc2)c1	0.67	5	11	-0.1	-0.9	16%	i	-2.0	1
CCN(CC)c1ccc(/C=N/OCC(=O)Nc2cccc(C)c2)cc1	·	·	·	·	30	14%	·	·	40
COc1ccc2c(c1)Cc1sc(NC(=O)c3cccnc3)nc1-2	0.63	8	-8	9.0	1.6	0%	i	-0.7	-7
CCOC(=O)Cc1nnc(NC(=O)C(CC)Sc2nnc3c4ccccc4n(C)c3n2)s1 (centres undefined)	0.7	·	·	·	2.5	-1%&-10%	·	·	-4
CCC(C)NC(=O)C1CCN(c2nc(C)cc(C)n2)CC1 (centres undefined)	0.71	·	·	·	2.1	?	·	·	0
O=C(Nc1ccccc1)C1CCOC1=O (centres undefined)	0.64	-1	4	-1.6	-4.1	·	i	0.3	13
O=C(CSc1nnc(-c2ccco2)n1Cc1ccccc1)c1ccccc1	0.77	·	·	·	1.1	3%	·	·	19
CCOC(=O)c1c(NC(=O)C(C)Sc2cccc[n+]2[O-])sc2c1CCN(Cc1ccccc1)C2 (centres undefined)	0.69	·	·	·	4.3	0%	·	·	-46
COc1cccc(C#Cc2cnc3c(c2)C(=O)N([C@@H](C)CO)C[C@H](C)[C@@H](CN(C)C(C)=O)O3)c1	·	-3	1	0.3	·	·	i	-0.5	·
O=C(O)c1ccc(C=NN=Cc2ccco2)cc1	·	9	13	1.1	-0.1	0%	i	-2.0	·
COc1ccc(CCNC(=O)CO/N=C/c2cc3c(cc2Br)OCO3)cc1OC	·	-36*	-20*	1.6*	2.2	2%	·	1.5	-21
CCC(=O)Nc1ccccc1C(=O)N1CCOCC1	0.71	·	·	·	2.8	32%	·	·	-1
Carrying on:
SMILES	E coli growth	rRNA inh HTS	rRNA inh HTS OD600	rRNA inh HTS RFP	HNF4A DNA FP	Vif A3G	FGF22 binding	AF4-AF9 inh	ALR inh
COCCNC(=O)C[C@H]1CC[C@@H]2[C@@H](COc3ccc(NC(=O)Nc4cccc(F)c4)cc3C(=O)N2C)O1	·	-4	-8	-1.3	·	·	i	-2.0	·
Cc1ccc(S(=O)(=O)C2(C(=O)Nc3ccc(Br)cc3)CC2)cc1	0.7	-30	-24	-3.8	-0.2	-1%	i	-5.2	1
CCc1ccccc1CC1CN(Cc2ccccc2)Cc2ccccc2N1c1ccc(OC)cc1 (centres undefined)	·	-3	-2	3.0	1.7	·	·	0.2	·
COc1ccc(/C=C(/NC(=O)c2ccccc2)C(=O)Nc2cccc(C(=O)O)c2)cc1	0.73	15	4	1.1	1.6	2%	i	-0.7	·
O=C(Cn1[nH]c(=O)c2ccccc2c1=O)Nc1ccc2c(c1)CCC2	0.69	·	·	·	0.9	1%	·	·	-5
Cn1cnc(CCNC(=O)C[C@H]2CC[C@@H]3[C@H](COC[C@H](O)CN3C(=O)Nc3ccc(Cl)cc3)O2)c1	·	-21*	-6.9*	-2.9*	·	·	i	-1.2	·
CC(C)CC(NC(=O)c1ccccc1)C(=O)OCC(=O)Nc1ccc(S(N)(=O)=O)cc1 (centres undefined)	0.68	14	2	12	2.0	·	i	-0.9	-13
CCS(=O)(=O)N1CC2(C1)[C@H](c1ccccc1)[C@@H](CO)N2Cc1ccc(F)cc1	·	-1	3	-1.2	·	·	i	-1.6	·
COc1cc(OC)cc(-c2noc(-c3csc([C@H]4C[C@H](O)[C@@H](CO)O4)n3)n2)c1	·	·	·	·	-5.2	·	i	-2.6	·
CN(CC(=O)Nc1ccc(Cl)c(C(F)(F)F)c1)C(=O)/C=C/c1cccs1	0.7	-1	-21	5.9	-1.0	-1%	i	1.4	·
COC(=O)[C@]12C[C@H](CC(=O)NCc3cccs3)C(=O)N(CCC3=CCCCC3)C1=C[C@H](C(C)(C)C)O[C@@H]2C	·	12	7	3.2	·	·	i	2.0	·
Cc1nc(-c2cccs2)sc1C(=O)O	0.7	5	1	-0.8	4.1	·	i	0.0	-3
CCC(C)(C)NC(=O)C(c1ccc(OC)cc1)N(C(=O)CCC(=O)Nc1cc(C)on1)C(C)(C)C (centres undefined)	0.66	9	6	2.2	7.2	·	i	-1.1	1
CNCCC(=O)N1c2ccccc2CCc2ccc(NC(=O)OC)cc21	0.66	10	9	9.9	-3.7	-3%	i	1.3	-7
COc1ccc(NC(=O)CCN2CCN(Cc3ccccc3)CC2)c(OC)c1	0.68	0	3	-0.6	-1.0	-3%	i	9.0	-15
COc1ccc(C2CC(C(F)(F)F)n3nc(C(N)=O)c(Cl)c3N2)cc1OC (centres undefined)	0.7	·	·	·	-1.6	31%	·	·	-6
Cc1ccccc1NC(=O)Cc1nc(COC(=O)c2cccc(O)c2)cs1	0.67	-13	-25	-2.0	-1.2	11%	i	0.3	1
Cc1c(N=C2NC(=O)/C(=C/c3ccc(O)cc3)S2)c(=O)n(-c2ccccc2)n1C	·	·	·	·	0.3	-5%	·	·	99*
C[C@H](CO)N1C[C@H](C)[C@@H](CN(C)S(C)(=O)=O)Oc2cc(-c3ccccc3F)ccc2S1(=O)=O	·	-2	-7	-0.7	·	·	i	0.7	·
COc1ccc(NS(=O)(=O)c2cc(NC(=O)Cn3cnc4c3c(=O)n(C)c(=O)n4C)ccc2C)cc1	0.68	-15	-13	-2.5	1.9	·	i	-0.5	·
C[C@@H]1CN([C@H](C)CO)C(=O)c2cc(C#Cc3ccccn3)cnc2O[C@H]1CN(C)Cc1cncnc1	·	3	6	2.7	·	·	i	-2.0	·
CCCCCCCCN1C(=O)[C@H](CC(=O)NCCCCc2ccccc2)C[C@@]2(C(=O)OC)CCCCC=C12	·	·	·	·	-2.2	·	i	0.1	·
O=C([C@@H]1[C@@H](CO)[C@@H]2Cn3c(cccc3=O)[C@H]1N2Cc1ccccc1)N1CCCCC1	·	4	4	-5.0	·	·	i	0.3	·
CC1CN(CC(O)c2ccc(Br)cc2)CCO1 (centres undefined)	0.65	14	9	0.6	0.9	-2%	i	4.5	·
O=C(c1ccccc1)N1CCCCC1	·	11	1	3.3	-2.3	·	i	-5.9	·
Continued.
SMILES	E coli growth	rRNA inh HTS	rRNA inh HTS OD600	rRNA inh HTS RFP	HNF4A DNA FP	Vif A3G	FGF22 binding	AF4-AF9 inh	ALR inh
CC(C)Oc1ccc2c3c(c(=O)oc2c1)CCC3	0.65	·	·	·	12	-5%	·	·	-14
COc1cc2ccccc2cc1C(=O)NC(=S)Nc1ccc(C(=O)O)cc1	0.68	-9	5	-3.8	-2.2	·	i	-1.3	-19
O=C(COC(=O)C1CC1)NCCc1ccccc1	0.68	·	·	·	-1.3	3%	i	0.9	-2
Cc1ccc2c(c1)N(CC(=O)NCCCN1CC(C)CC(C)C1)C(=O)c1cccnc1O2 (centres undefined)	0.74	5	11	0.0	6.2	-1%	·	-0.7	0
O=C(O)c1ccccc1NC(=S)NC(=O)c1cccc2ccccc12	0.69	-30	-30	-3.8	1.0	-9%	i	-5.0	98*
COC(=O)C[C@@H]1C[C@H]2c3cc(NC(=O)NC4CCCCC4)ccc3O[C@H]2[C@H](CO)O1	·	1	1	1.3	·	·	i	-2.2	·
COC(=O)c1ccc(NC(=O)C2CCCN2C(=O)Nc2cccc(C(C)=O)c2)cc1 (centres undefined)	0.67	-2	-11	0.4	-0.4	-5%	i	-13	·
Cc1ccc(CNC(=O)c2ccc(NC3=NC4CS(=O)(=O)CC4S3)cc2)cc1 (centres undefined)	0.67	5	12	-4.1	-1.4	·	i	-3.9	10
Cc1ccc2c(CN3CCCCC3)cc(=O)oc2c1	0.67	10	9	4.2	-1.9	1%	i	2.7	-1
CC(C)c1cccc(-c2csc(C(C)(O)c3ccncc3)n2)c1 (centres undefined)	·	·	·	·	2.0	·	i	-0.7	·
C=CCn1c(SCc2c(C)noc2C)nc2sc(C)c(C)c2c1=O	0.73	·	·	·	-5.0	3%	·	·	4
COC(=O)c1ccc(CN2CCN(C3CCCC3)C(CCO)C2)cc1 (centres undefined)	0.66	7	17	1.5	-0.8	1%	i	-18	5
CCN1CCc2c(OCc3ccc(C)cc3)cccc2C1=O	0.65	10	13	3.0	-2.2	4%	i	-1.5	5
C[C@H]1CN([C@@H](C)CO)C(=O)c2cccc(NC(=O)c3ccncc3)c2O[C@@H]1CN(C)S(C)(=O)=O	·	1	-2	-1.6	·	·	i	-2.9	·
CN1C(=O)/C(=C2\SC(N)=NC2=O)c2ccccc21	·	·	·	·	-4.5	-12%	·	·	-3
Cc1c(NC(=S)NC(=O)C(C)(C)C)cccc1[N+](=O)[O-]	0.67	6	8	0.7	-1.1	·	i	8.0	7
CN1CCN(C(=O)C[C@@H]2CC[C@@H]3[C@H](COC[C@H](O)CN3C(=O)c3ccc(F)cc3)O2)CC1	·	-2	-1	2.0	·	·	i	-1.1	·
C=CCc1ccc(OC(=O)NC2CCCCC2)c(OC)c1	0.69	4	7	-0.2	-3.6	-5%	i	-0.7	-3
O=C(Nc1ccnn1C1CCN(Cc2cccc(OCCO)c2)CC1)C1CC1	0.68	-6	0	-1.8	0.8	-6%	i	-1.2	-1

The list is partial. The share of hits here may be higher or lower than overall.
